# Screens from PubChem.
# CFTR F508del = total CFTR protein upregulators, primary screen, cell-based, HeLa F508del-CFTR, immunofluorescence, viability (AID 1224863); Cystic fibrosis transmembrane conductance regulator (Homo sapiens); HeLa F508del-CFTR, immunofluorescence total CFTR, 24 h; by the record results were divided by relative cell number; some inactives read as strong as hits; calls, or highest fold increase where a dose series was run; hit rate 0.1% among 10,000; in the data nearly all actives have a first-pass fold increase above 1.5; a few of its hits are not listed in these tables;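 also: total CFTR protein by anti-CFTR immunofluorescence in fixed cells; first pass at 25 µM or 10 µg/mL by library and series up to twice that; 1 = untreated cells; first-pass hits also needed half or more of the cells alive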
# CFTR F508del fold 25 µM = recorded beside CFTR F508del, whose call it bears; fold increase; measured here: primary screen single dose 25 uM; library dosed in µM
# CFTR F508del fold 10 ug/mL = second read-out of CFTR F508del, no call of its own (marks repeat the call); fold increase; measured here: primary screen 10 ug/mL
# CFTR F508del viability 25 µM = second read-out of CFTR F508del, no call of its own (marks repeat the call); viability, %; measured here: primary viability 25 uM; library dosed in µM;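 0% = killed and 100% = untreated cells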
# CFTR F508del viability 10 ug/mL = recorded beside CFTR F508del, whose call it bears; viability, %; measured here: primary viability 10 ug/mL;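 0% = killed and 100% = untreated cells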
# * hit, by the source's call; i = inactive; . = no result given; & = joins results of further samples. This is a subset; the hit share may differ from the screen's.
SMILES,CFTR F508del,CFTR F508del fold 10 ug/mL,CFTR F508del viability 10 ug/mL,others
COCCNC(=O)Nc1ccc(Br)cc1Br,i,1,97,
CC(C)CN1C(=O)c2ccc([N+](=O)[O-])cc2C1=O,i,0.89,88,
N#Cc1cccnc1NCCN,i,1,98,
COc1ccccc1C(CNc1ccc2nnnn2n1)N(C)C (stereo not drawn),i,1,92,
Nc1cccc(OCCn2ccnc2)c1,i,1,97,
O=C(NCCc1cccs1)C1CCC1,i,0.93,96,
CCCCn1c(N)c(N(CC)C(=O)CCNC(=O)C(C)(C)C)c(=O)[nH]c1=O,i,0.99,100,
O=S(=O)(C1=Cc2ccccc2CC1)N(Cc1ccco1)Cc1ccco1,i,0.82,82,
CN(C)CCNS(=O)(=O)c1cc(Cl)cc(Cl)c1,i,1,98,
CC(C)CN1C(=O)C(=O)N(Cc2cc(Cl)c3c(c2)OCCCO3)C1=O,i,1.1,90,
Cn1c(CCSc2ccccc2)nc2ccccc2c1=O,i,1,82,
COc1cc(OC)c(C2=CCN(S(=O)(=O)N3CCCC(C)C3)CC2)c(OC)c1 (stereo not drawn),i,0.84,83,
O=C(Nc1ccccc1N1CCCC1=O)N1CCN(c2cnccn2)CC1,i,1.1,96,
CCOC(=O)/C=C/c1cn(C)c(=O)n(C)c1=O,i,0.99,100,
CC(C)(C)NS(=O)(=O)c1ccc(C(=O)NCC(F)(F)F)o1,i,0.97,92,
Cc1ccc(CN(Cc2nc(-c3ccc(C(F)(F)F)cc3)no2)C2CC2)cc1,i,1.2,100,
Cc1ccc2c(CSc3nnnn3C(C)(C)C)cc(=O)oc2c1,i,0.91,83,
Cc1cc(O)c(CN2CC(C)OC(C)C2)cc1C (stereo not drawn),i,0.91,91,
COc1ccc(-n2c(SCc3cn4c(C)cc(C)nc4n3)nc3ccccc32)cc1,i,1.3,97,
Cc1nn(CN(C)Cc2cnn(C)c2)c(=S)n1C,i,1.1,104,
CS(=O)(=O)NCCCNc1ncnc2sc3c(c12)CCCCC3,i,1.1,85,
O=C1NC2(CCOc3ccccc32)C(=O)N1CCS(=O)(=O)c1ccc(Br)cc1 (stereo not drawn),i,1.2,103,
O=S(=O)(NC1CCc2nc(-c3ccccc3)ncc2C1)N1CCCCCC1 (stereo not drawn),i,0.81,77,
CC(C)(C)N(Cc1ccc2ccccc2n1)Cc1ccc2ccccc2n1,i,1.1,98,
O=c1c(Cl)c(Cl)cnn1CN1CCc2sccc2C1,i,1,87,
Cn1c(N)c(C(=O)COC(=O)c2cc(Cl)cc(Cl)c2N)c(=O)n(C)c1=O,i,0.99,91,
NC(=O)CC[C@H](N)C(=O)O,i,.,.,CFTR F508del fold 25 µM=0.98;CFTR F508del viability 25 µM=91
Cc1nn(C)c(C)c1CCC(=O)NCC12CC3CC(CC(C3)C1)C2,i,0.97,90,
O=S(=O)(NCC12CC3CC(CC(C3)C1)C2)c1ccc(Cl)cc1C(F)(F)F,i,0.95,89,
CCN(CC)CCC(C)N (stereo not drawn),i,1.2,103,
CC(NC(=O)C(C)(C)C)c1ccc(OC(F)(F)F)cc1 (stereo not drawn),i,0.94,73,
COCCN(C(=O)Cn1nc(C)c([N+](=O)[O-])c1C)C1=CCCCC1,i,1.1,82,
CN(C)S(=O)(=O)c1ccc(CNC(=O)C2CCCO2)s1 (stereo not drawn),i,1.1,101,
CC1CN(S(=O)(=O)c2ccc(Cl)cc2C(F)(F)F)CC(C)O1 (stereo not drawn),i,0.98,85,
CC(C)(C)C(=O)C(Oc1ccc(Cl)cc1)n1ccnc1 (stereo not drawn),i,.,.,CFTR F508del fold 25 µM=1.1&1.1;CFTR F508del viability 25 µM=87&102
O=S(=O)(NC(c1ccc(F)cc1)c1cccs1)c1cccs1 (stereo not drawn),i,0.91,93,
Cn1c([N+](=O)[O-])cc[n+]1C,i,.,.,CFTR F508del fold 25 µM=1.1;CFTR F508del viability 25 µM=99
COc1ccc(S(=O)(=O)N2CCN(C)CC2)cc1[N+](=O)[O-],i,0.99,81,
CS(=O)(=O)N1CCCN(Cc2nnnn2C2CC2)CC1,i,0.98,98,
c1ccc(-c2cc(-c3cccs3)nc3sc4c(c23)CCCC4)cc1,i,1.2,102,

# At a glance, 18 of the compounds above:
SMILES,CFTR F508del,CFTR F508del fold 10 ug/mL,CFTR F508del viability 10 ug/mL,others
O=S(=O)(NC1CCc2nc(-c3ccccc3)ncc2C1)N1CCCCCC1 (stereo not drawn),i,0.81,77,
CC(C)(C)N(Cc1ccc2ccccc2n1)Cc1ccc2ccccc2n1,i,1.1,98,
O=c1c(Cl)c(Cl)cnn1CN1CCc2sccc2C1,i,1,87,
Cn1c(N)c(C(=O)COC(=O)c2cc(Cl)cc(Cl)c2N)c(=O)n(C)c1=O,i,0.99,91,
NC(=O)CC[C@H](N)C(=O)O,i,.,.,CFTR F508del fold 25 µM=0.98;CFTR F508del viability 25 µM=91
Cc1nn(C)c(C)c1CCC(=O)NCC12CC3CC(CC(C3)C1)C2,i,0.97,90,
O=S(=O)(NCC12CC3CC(CC(C3)C1)C2)c1ccc(Cl)cc1C(F)(F)F,i,0.95,89,
CCN(CC)CCC(C)N (stereo not drawn),i,1.2,103,
CC(NC(=O)C(C)(C)C)c1ccc(OC(F)(F)F)cc1 (stereo not drawn),i,0.94,73,
COCCN(C(=O)Cn1nc(C)c([N+](=O)[O-])c1C)C1=CCCCC1,i,1.1,82,
CN(C)S(=O)(=O)c1ccc(CNC(=O)C2CCCO2)s1 (stereo not drawn),i,1.1,101,
CC1CN(S(=O)(=O)c2ccc(Cl)cc2C(F)(F)F)CC(C)O1 (stereo not drawn),i,0.98,85,
CC(C)(C)C(=O)C(Oc1ccc(Cl)cc1)n1ccnc1 (stereo not drawn),i,.,.,CFTR F508del fold 25 µM=1.1&1.1;CFTR F508del viability 25 µM=87&102
O=S(=O)(NC(c1ccc(F)cc1)c1cccs1)c1cccs1 (stereo not drawn),i,0.91,93,
Cn1c([N+](=O)[O-])cc[n+]1C,i,.,.,CFTR F508del fold 25 µM=1.1;CFTR F508del viability 25 µM=99
COc1ccc(S(=O)(=O)N2CCN(C)CC2)cc1[N+](=O)[O-],i,0.99,81,
CS(=O)(=O)N1CCCN(Cc2nnnn2C2CC2)CC1,i,0.98,98,
c1ccc(-c2cc(-c3cccs3)nc3sc4c(c23)CCCC4)cc1,i,1.2,102,

# Following part.
SMILES,CFTR F508del,CFTR F508del fold 10 ug/mL,CFTR F508del viability 10 ug/mL,others
O=C(Nc1nccs1)C1CCOCC1,i,0.96,94,
CSc1ncc(Cl)c(C(=O)OCc2cc(=O)n3ccsc3n2)n1,i,1.1,107,
O=c1[nH]c(=O)n([C@H]2CC(O)[C@@H](CO)O2)cc1I (stereo partly drawn),i,.,.,CFTR F508del fold 25 µM=1.5;CFTR F508del viability 25 µM=92
Fc1cc2c(c(CSCc3c(F)c(F)c(F)c(F)c3F)c1)OC(c1ccccc1)OC2 (stereo not drawn),i,1.1,98,
O=C(NCCCN1CCCC1=O)NCCc1ccc(Cl)cc1,i,1,105,
Cn1c(N)c(C(=O)COC(=O)c2ccccc2Br)c(=O)n(C)c1=O,i,1,97,
CC1=C(C(=O)OCc2ccccc2)C(c2ccc(F)cc2F)NC(=S)N1 (stereo not drawn),i,0.87,72,
O=C(O)c1cc(O)c(O)c(O)c1 (tested in a mixture with another compound),i,1.1,89,
CC1=C(/C=C/C(C)=C/C=C/C(C)=C/C(=O)O)C(C)(C)CCC1,i,.,.,CFTR F508del fold 25 µM=1.1&1.1&1.2;CFTR F508del viability 25 µM=77&92&91
COc1cc(OC)c(OC)cc1CNCc1csc(Br)c1,i,0.99,93,
O=[N+]([O-])c1ccc(S(=O)(=O)Nc2ccc(-n3cccn3)nc2)cc1Br,i,0.97,103,
Cn1c(=O)c2ccccc2n2c(COc3ccc(Cl)c4ccccc34)nnc12,i,1.1,84,
COc1cc(/C=C/c2cc(-c3ccccc3)n3c(nc4ccccc43)c2C#N)ccc1OC(F)F,i,1,99,
Cc1nn(-c2ccc(F)cc2)c(C)c1CNCC1(N2CCOCC2)CCCCC1,i,0.95,99,
Cn1cc(CCNS(=O)(=O)c2cccc(S(N)(=O)=O)c2)cn1,i,0.94,87,
Cc1ccc(CN(C)C(=O)NCCCN2C(=O)NC3(CCCC3)C2=O)c(C)c1,i,0.97,81,
CN[C@@H]1C(O)[C@@H](O[C@@H]2[C@@H](O)[C@H](O[C@H]3OC(CN)=CC[C@H]3N)[C@@H](N)C[C@H]2N)OC[C@]1(C)O (stereo partly drawn),i,.,.,CFTR F508del fold 25 µM=1;CFTR F508del viability 25 µM=88
COc1ccc([C@@H]2Sc3ccccc3N(CCN(C)C)C(=O)[C@@H]2OC(C)=O)cc1,i,.,.,CFTR F508del fold 25 µM=0.97;CFTR F508del viability 25 µM=106
Cc1nc(C2CC2)nc(SCC(=O)NC(C)C(C)C)c1C#N (stereo not drawn),i,0.97,100,
Cc1cc(C(=O)COC(=O)c2ccc([N+](=O)[O-])s2)c(C)n1CC1CCCO1 (stereo not drawn),i,0.93,105,
CC(c1cccs1)N(C)C(=O)CCN1C(=O)NC2(CCCCC2)C1=O (stereo not drawn),i,0.9,92,
O=C1C(=O)N(C2CCCC2)C(=O)N1CN1CCN(S(=O)(=O)c2ccc3c(c2)CCC3)CC1,i,1,87,
CCCN[C@H]1CCc2nc(N)sc2C1,6.5,.,.,CFTR F508del fold 25 µM=2.4&0.98;CFTR F508del viability 25 µM=82&88
C=CCn1c(SCCC#N)nc2sccc2c1=O,i,1,105,
Cc1cc(S(=O)(=O)N2CCN(S(=O)(=O)c3ccc(F)cc3F)CC2)c(C)s1,i,1,88,
Cc1sc2nc(C(C)OC(=O)c3cc4c(s3)CCC4)[nH]c(=O)c2c1C (stereo not drawn),i,1.1,91,
CCc1nc(N)nc(N)c1-c1ccc(Cl)cc1,i,.,.,CFTR F508del fold 25 µM=0.74&0.82;CFTR F508del viability 25 µM=64&80
CN(Cc1cnn(-c2ccccc2)c1)Cn1c(=O)oc2cc(Br)ccc21,i,0.98,84,
Cc1ccc(S(=O)(=O)N(C2CC2)C(C)C(C)C)cc1C (stereo not drawn),i,1.1,97,
CC(C)[N+]1(C)C2CC[C@H]1CC(OC(=O)C(CO)c1ccccc1)C2 (stereo partly drawn),i,.,.,CFTR F508del fold 25 µM=1.1;CFTR F508del viability 25 µM=89
Cc1[nH]c(C(=O)N2CCOCC2)c(C)c1C(=O)OC(C)C,i,1,71,
CCN(CC)S(=O)(=O)N1CCCC(C(=O)NCC(C)C)C1 (stereo not drawn),i,1,93,
CN1[C@@H]2CCC[C@H]1CC(NC(=O)c1nn(C)c3ccccc13)C2 (stereo partly drawn),i,.,.,CFTR F508del fold 25 µM=1;CFTR F508del viability 25 µM=100
COc1cc(CCNS(=O)(=O)N2CCOCC2)c([N+](=O)[O-])cc1OC,i,1.1,106,
O=S(=O)(Cc1ccc(F)cc1)NCC1(N2CCOCC2)CCCCC1,i,1,82,
COc1cc(Br)c(CSC2=NC3CCCCC3N2)cc1OC (stereo not drawn),i,1.3,94,
CN(Cc1ccc2c(c1)OCCO2)Cn1ncn(C)c1=S,i,1.1,101,
COc1ccc(OC)c(CN(C2CC2)S(=O)(=O)c2ccc(OC(F)(F)F)cc2)c1,i,0.86,74,
O=C(c1cc(Cl)c[nH]1)N1CCNCC1,i,0.98,92,
N#C[C@@H]1C[C@@H]2C[C@@H]2N1C(=O)[C@@H](N)C12CC3CC(CC(O)(C3)C1)C2,i,.,.,CFTR F508del fold 25 µM=1;CFTR F508del viability 25 µM=101
CC1Cc2ccccc2N1C1CCNCC1 (stereo not drawn),i,1,89,
c1ccc(-n2nnnc2CCCSc2nnc(-c3ccco3)o2)cc1,i,1.1,103,
Cc1ccc(C(NC(=O)C2(C)CC2(Cl)Cl)c2ccccc2)cc1 (stereo not drawn),i,1.1,95,
Cc1cc(CSc2nnc(-c3ccoc3C)n2-c2ccccc2)no1,i,0.81,88,
c1ccc(-c2csc3ncnc(Sc4ccc5nnnn5n4)c23)cc1,i,0.6,75,
O=C(Nc1nc2ccc(SC(F)F)cc2s1)C12CC3CC(CC(C3)C1)C2,i,1.3,87,
CNS(=O)(=O)Cc1ccc(CNS(=O)(=O)c2cccs2)cc1,i,1,97,
Fc1cccc(-c2nnn(Cc3cccc4ccccc34)n2)c1,i,0.92,92,
CC(C)N(C(=O)CSc1nc2ccsc2c(=O)n1C)C1CCCCC1,i,1,90,
CN(C)[C@@H]1C(=O)C(C(=O)NCN2CCCC2)=C(O)[C@@]2(O)C(=O)C3=C(O)c4c(O)cccc4[C@@](C)(O)[C@H]3C[C@@H]12,i,.,.,CFTR F508del fold 25 µM=1.1;CFTR F508del viability 25 µM=82

# (continued)
SMILES,CFTR F508del,CFTR F508del fold 10 ug/mL,CFTR F508del viability 10 ug/mL,others
O=C(Cn1cnc2scc(-c3cccs3)c2c1=O)N1CCCC1,i,1.1,94,
O=C(NC1CCN(Cc2ccc(Cl)cc2)CC1)C12CC3CC(CC(O)(C3)C1)C2,i,1.1,86,
CCN(CC)c1ccc(S(=O)(=O)N2CCOCC2)cc1NS(=O)(=O)c1ccc2c(c1)OCCO2,i,1.2,85,
CCCn1c(N)c(-c2csc(N(CC)CC)n2)c(=O)n(C)c1=O,i,0.95,98,
COc1cc(COc2cccnc2[N+](=O)[O-])c(OC)cc1Br,i,0.73,79,
CC1(C)OC(=O)NC1=O,i,.,.,CFTR F508del fold 25 µM=1;CFTR F508del viability 25 µM=97
